Assay outcomes: PubChem, several laboratories
HSV augment: HSV replication enhancement. maximum fold increase. HSV replication augmentation in cells, fold increase. hit rate 0.005% among 220,000. AID 1956;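 active = peak rise of 1.5-fold or more in the series; tested in PC3 cells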;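 note: first round at 10 µM; read as green reporter fluorescence; hits show the peak of a series up to 25 µM; 1 = signal of infected wells without compound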
RGS16-Gao HTS: RGS16-Galphao interaction regulator (human) | AID 1441 | hit rate 0.38% among 220,000 | bead-based flow cytometry RGS16-Galphao binding, fluorescence; actives lie on both sides | binding response (% of control), % at 10 µM;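 active = below 25% or above 175%, edge rows of some plates excepted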;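 note: Galphao activated by GDP with aluminum fluoride before binding; 100% = wells without compound and 0% = beads without RGS; some results beyond the cut were filed as inactive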
Target sequence (O15492 whole entry, looked up): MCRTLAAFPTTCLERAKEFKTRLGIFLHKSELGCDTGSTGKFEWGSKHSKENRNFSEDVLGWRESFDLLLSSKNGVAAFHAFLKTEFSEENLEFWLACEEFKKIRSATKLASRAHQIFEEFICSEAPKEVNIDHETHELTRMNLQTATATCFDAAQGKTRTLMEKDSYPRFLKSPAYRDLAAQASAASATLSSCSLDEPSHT
Target sequence (P09471 whole entry, looked up): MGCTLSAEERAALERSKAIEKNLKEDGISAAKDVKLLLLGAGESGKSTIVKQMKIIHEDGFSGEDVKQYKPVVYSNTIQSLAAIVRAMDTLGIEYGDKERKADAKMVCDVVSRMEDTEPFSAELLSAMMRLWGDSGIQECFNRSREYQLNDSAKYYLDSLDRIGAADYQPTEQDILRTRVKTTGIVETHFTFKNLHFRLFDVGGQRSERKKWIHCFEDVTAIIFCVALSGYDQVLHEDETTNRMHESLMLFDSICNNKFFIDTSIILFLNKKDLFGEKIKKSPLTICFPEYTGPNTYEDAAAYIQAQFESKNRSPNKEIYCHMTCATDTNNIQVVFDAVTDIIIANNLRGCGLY
GALR2 agonist: GALR2 (human) receptor agonism | O43603 | GALR2-expressing cells, agonist activation read-out | activation, %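 (tested at 5 µM)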 | hit rate 0.48% among 140,000 | AID 803;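 active = above mean plus 3 SD of all compounds, about 5% in these data, not always enough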;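 note: 0% = vehicle buffer wells and 100% = reference agonist at full effect; tested in CHO reporter cells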
Target sequence (O43603 whole entry, looked up): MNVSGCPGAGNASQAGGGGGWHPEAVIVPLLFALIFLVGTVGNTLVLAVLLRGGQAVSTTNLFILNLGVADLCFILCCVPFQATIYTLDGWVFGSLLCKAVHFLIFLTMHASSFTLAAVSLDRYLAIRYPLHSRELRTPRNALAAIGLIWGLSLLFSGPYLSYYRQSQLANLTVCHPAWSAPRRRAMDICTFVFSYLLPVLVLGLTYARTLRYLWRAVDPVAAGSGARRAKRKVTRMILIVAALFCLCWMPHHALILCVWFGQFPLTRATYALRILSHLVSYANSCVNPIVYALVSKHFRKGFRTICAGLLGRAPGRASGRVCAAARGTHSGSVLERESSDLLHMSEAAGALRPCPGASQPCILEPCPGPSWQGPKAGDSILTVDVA
Insulin prom inh: TRM-6 insulin promoter activity inhibition; inhibition, % at 2 µM; hit rate 0.9% among 130,000; TRM-6 cells (human fetal islet line), insulin promoter-eGFP reporter, imaging; reporter expression induced with tamoxifen;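 active = inhibition above the mean plus 3 SD, with well images judged a real hit on visual review, cut at about 60% in these data, passing the limit was not always enough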
PKD1 kinase inh: blocks activity of human protein kinase D1; AID 797; PKD1 kinase fluorescence polarization assay; inhibition, %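 (about 10 µM by stock and volumes)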; hit rate 0.056% among 200,000;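 active = inhibition of 50% or more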;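 note: controls were vehicle for no effect and a reference inhibitor for full effect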
Insulin prom inh cell count: also measured in Insulin prom inh; calls as there; normalized cell count, %; measured here: cell count, toxicity; reference of the scale not given here;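 cells exposed to compound for 48 h; stained nuclei by imaging scaled within each plate; lower means fewer cells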
HSV augment primary fold: second read-out of HSV augment, no call of its own (marks repeat the call); fold increase; compound at 10 µM; measured here: primary screen fold increase 10 uM; tested in PC3 cells;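 GFP signal in the first replicate; 1 = infected wells without compound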
The depositor's hits bear a star; i = inactive; . = no result given.

SMILES | HSV augment | HSV augment primary fold | RGS16-Gao HTS | GALR2 agonist | Insulin prom inh | Insulin prom inh cell count | PKD1 kinase inh
CCOc1ccc(NC(=O)CSc2nnc(Cc3cccn3C)n2-c2ccc(F)cc2)cc1 | i | 1 | 100 | -2.0 | . | . | -15
O=c1[nH]c(SCCOc2ccccc2)nc2ccccc12 | i | 0.96 | 99 | -2.2 | -343 | 51 | -1
Cc1nc(N)sc1N=Nc1c(C)n(C)n(-c2ccccc2)c1=O | i | 0.96 | 106 | . | . | . | .
Cn1c(=O)c2c(nc(CN3CCOCC3)n2Cc2ccccc2)n(C)c1=O | . | . | . | -1.3 | 30 | 141 | 0
CC(/C=N/Nc1nc(C)cc(=O)[nH]1)=C\c1ccccc1 | . | . | 110 | . | -43 | 118 | -2
COC(=O)c1cc(S(=O)(=O)N2CCOCC2)ccc1Sc1ccccc1N | i | 0.89 | 98 | -1.1 | . | . | -8
COc1ccccc1C1Nc2cccc3cccc(c23)N1 | i | 0.9 | 85 | -2.4 | -32 | 113 | -1
Cc1ccc(C(=O)NC(c2ccccc2)C(Cl)Cl)cc1 (configuration not stated) | i | 0.94 | 101 | -0.9 | . | . | -4
CC(=O)Oc1ccc(N(c2ccccc2)S(=O)(=O)c2ccc(C)cc2)cc1 | i | 0.88 | 106 | . | 25 | 80 | 1
CCn1c(CNc2ccccc2Cl)nnc1SCC(=O)NCc1ccccc1 | i | 0.89 | 98 | -0.3 | -200 | 36 | 1
CNC(=S)N(Cc1ccc(OC)cc1)Cc1cc2cccc(C)c2[nH]c1=O | i | 0.9 | 101 | . | 27 | 103 | 10
COC(=O)Cc1ccc(NC(=S)N2CCN(c3ccc(F)cc3)CC2)cc1 | i | 1.2 | 124 | -2.1 | . | . | -4
OCCNc1nc(SCc2ccccc2)nc2sc3c(c12)CCC3 | . | . | 97 | 1.2 | 9 | 106 | 0
Cc1cc(N2CCOCC2)nc2ccc(NC(=S)N3CCN(Cc4ccccc4)CC3)cc12 | i | 0.69 | 104 | . | 57 | 133 | 7
CC(C)CCc1c(O)nc(SCC(C)C)[nH]c1=O | i | 0.93 | 109 | . | . | . | -9
CCC1=Nc2cc(C(=O)NCc3ccco3)ccc2Sc2ccc(C)cc21 | i | 0.59 | 87 | 1.3 | -76 | 13 | -3
C=CCn1c(SCC(=O)c2ccc(Cl)cc2)nnc1-c1ccc2c(c1)OCO2 | i | 0.96 | 106 | -3.8 | 29 | 118 | -5
COc1cc(NC(=O)C2CCN(S(=O)(=O)c3ccc(Cl)cc3)CC2)ccc1-n1cnnn1 | i | 0.87 | 98 | -0.3 | . | . | 7
COc1ccc(C(=O)N/N=C/c2ccc(OC)c(CN3CCc4cc(OC)c(OC)cc4C3C)c2)cc1 (configuration not stated) | i | 0.9 | 103 | . | . | . | 2
CC(C)(C)NC(=O)Cn1c(SCC(=O)NC2CCCCC2)nc2ccccc21 | i | 0.76 | 100 | -1.6 | 0 | 116 | -7
Cc1cccc(C2CC(c3ccc(Br)cc3)Nc3nc(N)nn32)c1 (configuration not stated) | i | 1.1 | 101 | -0.9 | . | . | 1
CCCn1nc(C(=O)N2CC(=O)Nc3ccccc32)c2ccccc2c1=O | i | 0.58 | 116 | 0.7 | . | . | 5
COc1ccccc1NC(=O)CSc1ncn[nH]1 | i | 0.96 | 106 | -0.7 | . | . | -2
Cc1ccc(OCCCCn2ccnc2)c([N+](=O)[O-])c1 | i | 0.88 | 105 | . | . | . | -1
CCOC(=O)[C@@H]1CCNC[C@@H]1c1ccccc1 | i | 0.8 | 101 | -2.1 | . | . | 9
Cc1ccc(S(=O)(=O)N2CCC[C@H]2C(=O)OC(C)C(=O)Nc2ncc(Cl)cc2Cl)cc1 (some centres not stated) | i | 0.96 | 102 | -1.4 | 3 | 155 | 1
C#CCOc1ccc(Br)cc1/C=N/O | i | 1.1 | 97 | -0.4 | -74 | 56 | -6
COc1cccc(N2CC(O)=C(c3nc4ccccc4s3)C2=N)c1 | i | 0.72 | 103 | . | . | . | -8
COc1cccc(OC)c1C(=O)Nc1cc(C)nn1-c1nc2ccccc2[nH]1 | i | 0.8 | 99 | . | 68* | 106* | -3
CN(/N=C/Cc1nnnn1-c1ccc(Cl)cc1)c1ccccc1 | i | 1.1 | 95 | . | . | . | .
COc1ccc(C(=O)n2nc(-c3ccc(Cl)cc3)nc2N)cc1OC | . | . | 74 | -2.7 | 11 | 108 | 4
O=c1cc(CSCc2ccc(Cl)cc2)[nH]c(=O)[nH]1 | i | 1 | 102 | . | . | . | .
COc1ccc(C(c2c(C)[nH]n(-c3ccccc3)c2=O)c2c(C)[nH]n(-c3ccccc3)c2=O)cc1OC | i | 1.1 | 12 | -1.0 | -11 | 102 | 0
O=C(CC(NC(=O)OCc1ccccc1)C(=O)O)OCc1ccccc1 (configuration not stated) | i | 1 | 101 | . | . | . | 1
COc1ccc(-c2nnn(CC(=O)N(CCCO)C(C(=O)NC3CCCC3)c3ccncc3)n2)cc1 (configuration not stated) | i | 1 | 99 | . | 4 | 85 | -1
COc1ccc(-c2ccc(SCc3cccnc3)nn2)cc1OC | i | 0.98 | 91 | . | . | . | -10
O=C1CC(/C=C/c2ccncc2)=Nc2ccccc2N1 | i | 0.99 | 96 | . | . | . | -2
O=C(Nc1ccc2cn[nH]c2c1)c1ccc(Cl)c(S(=O)(=O)N2CCOCC2)c1 | i | 0.9 | 106 | -1.1 | . | . | -10
c1ccc2c(-c3nnc4n3CCCCC4)cc(-c3ccncc3)nc2c1 | i | 1 | 103 | -0.6 | -30 | 69 | -3
CC(C)C(NS(=O)(=O)c1ccc2c(c1)oc(=O)n2C)C(=O)N1CCN(Cc2ccccc2)CC1 (configuration not stated) | i | 0.91 | 106 | -1.2 | . | . | -9

12 of the compounds above, with values under each structure:
Each structure is followed by: HSV augment | HSV augment primary fold | RGS16-Gao HTS | GALR2 agonist | Insulin prom inh | Insulin prom inh cell count | PKD1 kinase inh
- C#CCOc1ccc(Br)cc1/C=N/O
→ i | 1.1 | 97 | -0.4 | -74 | 56 | -6
- COc1cccc(N2CC(O)=C(c3nc4ccccc4s3)C2=N)c1
→ i | 0.72 | 103 | . | . | . | -8
- COc1cccc(OC)c1C(=O)Nc1cc(C)nn1-c1nc2ccccc2[nH]1
→ i | 0.8 | 99 | . | 68* | 106* | -3
- CN(/N=C/Cc1nnnn1-c1ccc(Cl)cc1)c1ccccc1
→ i | 1.1 | 95 | . | . | . | .
- COc1ccc(C(=O)n2nc(-c3ccc(Cl)cc3)nc2N)cc1OC
→ . | . | 74 | -2.7 | 11 | 108 | 4
- O=c1cc(CSCc2ccc(Cl)cc2)[nH]c(=O)[nH]1
→ i | 1 | 102 | . | . | . | .
- COc1ccc(C(c2c(C)[nH]n(-c3ccccc3)c2=O)c2c(C)[nH]n(-c3ccccc3)c2=O)cc1OC
→ i | 1.1 | 12 | -1.0 | -11 | 102 | 0
- O=C(CC(NC(=O)OCc1ccccc1)C(=O)O)OCc1ccccc1 (configuration not stated)
→ i | 1 | 101 | . | . | . | 1
- COc1ccc(-c2nnn(CC(=O)N(CCCO)C(C(=O)NC3CCCC3)c3ccncc3)n2)cc1 (configuration not stated)
→ i | 1 | 99 | . | 4 | 85 | -1
- COc1ccc(-c2ccc(SCc3cccnc3)nn2)cc1OC
→ i | 0.98 | 91 | . | . | . | -10
- O=C1CC(/C=C/c2ccncc2)=Nc2ccccc2N1
→ i | 0.99 | 96 | . | . | . | -2
- O=C(Nc1ccc2cn[nH]c2c1)c1ccc(Cl)c(S(=O)(=O)N2CCOCC2)c1
→ i | 0.9 | 106 | -1.1 | . | . | -10

(list continues)
SMILES | HSV augment | HSV augment primary fold | RGS16-Gao HTS | GALR2 agonist | Insulin prom inh | Insulin prom inh cell count | PKD1 kinase inh
CCCCc1ccc(NC(=O)c2ccc(N(C)S(C)(=O)=O)cc2)cc1 | i | 0.84 | 99 | . | . | . | .
COC(=O)CSc1nc2cc(C)cc(C)c2cc1C#N | i | 1.1 | 105 | 0.0 | -129 | 41 | -4
CCCC(=O)c1c(C)c2ccccc2n1C | i | 0.89 | 107 | -1.1 | 16 | 118 | 7
CN1CCN(C(=O)c2cc(-c3ccccc3)on2)CC1 | i | 0.98 | 101 | -1.6 | 69 | 77 | -17
O=C(c1ccc(S(=O)(=O)c2ccccc2Cl)c([N+](=O)[O-])c1)N1CCN(Cc2ccccc2)CC1 | i | 0.64 | 82 | -0.2 | 34 | 76 | -7
Cc1cc(C)c(C#N)c(Sc2ccc(N)cc2)n1 | i | 1 | 103 | -0.2 | 22 | 75 | 1
COc1ccc(S(=O)(=O)Nc2nc(C(F)(F)F)cs2)cc1 | i | 0.92 | 108 | -2.0 | . | . | -12
Cc1ccc(Nc2c3c(nc4ncnn24)CCC3)cc1 | i | 0.91 | 101 | 0.6 | 30 | 54 | -1
COc1n[nH]c2nncnc12 | i | 0.9 | 96 | -1.6 | 3 | 107 | -2
Cc1ccc(-c2ccc(/C=C3/NC(=O)NC3=O)o2)cc1[N+](=O)[O-] | i | 0.81 | 99 | 3.4 | -45 | 137 | 2
O=C(Nc1cccc(Cl)c1)Nc1cccc(C(=O)O)c1 | i | 0.9 | 95 | . | . | . | .
NC(=O)Nc1n[nH]c(-c2ccccc2)n1 | i | 0.82 | 105 | . | . | . | .
N#C/C(=C/c1ccc(N2CCOCC2)o1)C(=O)NC1CCCCC1 | . | . | 107 | . | . | . | -9
CCN(CC)CCN(CC(=O)N(C1CCCCC1)C1CCCCC1)C(=O)c1cccnc1 | i | 0.92 | 106 | . | -7 | 149 | -7
CCOc1cc(/C=C(/C#N)c2ccc(Cl)cc2)cc(Cl)c1OCC(=O)O | i | 1 | 105 | . | . | . | 6
COc1ccc(CCNC(=O)c2ccc(CN3CCC(Cc4ccccc4)CC3)cc2)cc1OC | i | 1 | 107 | -0.4 | 33 | 87 | -2
CC(C)NS(=O)(=O)c1ccc(NC(=O)Cc2cccs2)cc1 | i | 0.95 | 114 | -1.4 | -8 | 64 | -7
CCN(CC)C(=O)CC(c1ccc(F)cc1)c1ccc(OC(C)C)cc1 (configuration not stated) | i | 1.1 | 100 | 1.2 | . | . | 4
[NH-]c1ncnc2c1N=C[N+]2=CC=CCO | i | 0.98 | 89 | . | . | . | .
COc1cc(C2C(C#N)=C(N)N(c3sc4c(c3C#N)CCCC4)C3=C2C(=O)CC(C)(C)C3)cc(OC)c1OC (configuration not stated) | i | 0.9 | 100 | -1.1 | -12 | 89 | 0
Oc1ccc(-c2n[nH]c(=S)n2Cc2ccccc2)cc1 | i | 0.95 | 98 | -1.1 | 26 | 76 | 13
COc1cccc(C(=O)NCCn2ccc3ccccc32)c1 | i | 0.95 | 108 | -2.6 | -90 | 34 | 7
Clc1ccc(SCCCCn2ccnc2)cc1 | i | 0.88 | 113 | -2.6 | 50 | 126 | -11
CCSc1nnc(NC(=O)CSc2nc3c(c(=O)n2CCOC)SC(C)C3)s1 (configuration not stated) | i | 0.95 | 103 | . | . | . | .
COc1ccccc1N1CCN(C(CNS(=O)(=O)c2ccc(C)cc2)c2cccnc2)CC1 (configuration not stated) | i | 0.98 | 112 | -1.5 | -76 | 110 | 0
CCOc1ccccc1NC(=O)NCc1ccccc1F | i | 0.86 | 96 | . | . | . | 2
O=C(Nc1cccc(F)c1)/C(=C\c1cccnc1)NC(=O)c1cccs1 | i | 0.81 | 103 | -0.3 | . | . | 13
COC(=O)N/N=C(C)/C=C/c1ccccc1 | i | 0.94 | . | -0.6 | . | . | -7
O=[N+]([O-])c1cc(CN2CCN(c3cccc(C(F)(F)F)c3)CC2)c2cccnc2c1O | i | 0.82 | 107 | . | i | 9 | 2
COC(=O)c1[nH]c2ccc(Br)cc2c1NC(=O)CN1CCN(C2CCCCC2)CC1 | i | 0.63 | 102 | 1.2 | -28 | 89 | -11
O=C(Nc1ccccc1)/C(=C/c1ccccc1)NC(=O)c1ccco1 | i | 1.1 | 97 | . | . | . | 4
O=C(CSc1oc(-c2cccs2)nc1S(=O)(=O)c1ccccc1)NC1CCCCC1 | i | 0.95 | 97 | -2.8 | 0 | 123 | 2
O/N=C1\CC2(Cc3nonc31)OCCO2 | i | 1.1 | 102 | -1.9 | . | . | 3
O=C(Nc1ccccc1)OC1CCC2CC1CCC2OC(=O)Nc1ccccc1 (configuration not stated) | i | 0.85 | 123 | -0.3 | 40 | 50 | -2
Cc1cc(C)c(S(=O)(=O)N2CCCOC2CNC(=O)C(=O)NCc2cccnc2)c(C)c1 (configuration not stated) | i | 1.1 | 99 | . | -94 | 59 | -2
O=C(C1CCCCC1)N1CCN(c2ccnc3cc(Cl)ccc23)CC1 | i | 0.92 | 89 | . | . | . | .
Cc1cc2nc(C)n(CCCNC(=O)Nc3ccc(C#N)cc3)c2cc1C | i | 1.1 | 98 | 0.6 | 21 | 60 | 4
